D2 PAM: positive allosteric modulators of human D2 dopamine receptor | P14416 | DiscoveRx D2 beta-arrestin cells, luminescence, 90 min; 100% = 57 uM dopamine signal | potentiation, % (concentration not given with the values) | actives 0.23% (n = 360,000) | AID 624464; active = potentiation of 50% or more; inconclusive = 30% to 50%; inactive = 30% or less;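 note: compound concentration not given in the record; tested on top of an EC20 dose of dopamine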
Target sequence (P14416 whole entry, looked up): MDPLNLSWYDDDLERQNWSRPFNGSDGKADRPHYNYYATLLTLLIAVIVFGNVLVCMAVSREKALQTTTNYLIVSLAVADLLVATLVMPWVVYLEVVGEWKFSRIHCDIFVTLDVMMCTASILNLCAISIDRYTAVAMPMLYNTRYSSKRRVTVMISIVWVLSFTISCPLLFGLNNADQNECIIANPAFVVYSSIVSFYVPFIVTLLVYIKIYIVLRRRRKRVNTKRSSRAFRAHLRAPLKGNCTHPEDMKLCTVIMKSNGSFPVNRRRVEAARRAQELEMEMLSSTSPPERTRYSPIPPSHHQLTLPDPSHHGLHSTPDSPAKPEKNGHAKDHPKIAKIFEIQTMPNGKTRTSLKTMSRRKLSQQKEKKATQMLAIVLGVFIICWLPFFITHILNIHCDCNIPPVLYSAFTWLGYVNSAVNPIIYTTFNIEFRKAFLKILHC
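PathHunter D2 cells, attached overnight at 37 deg C, received compound in DMSO plus dopamine at EC20 (50 nM final) for 90 min at 37 deg C. Beta-arrestin recruitment was read as luminescence after 1 h with detection reagent at ambient temperature.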
TRPV1 PAM: enhances activation of the human vanilloid receptor TRPV1 | TRPV1-expressing cells, Fluo-8 calcium influx, capsaicin EC20 potentiation; host cell line not named in the record; control for the full effect not named in the record | potentiation, % at 8.33 µM | actives 0.02% (n = 320,000) | AID 540277; active means potentiation above 80%; inconclusive means 30% to 80%; inactive means below 30%; note: 0% is about no effect
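Cells expressing TRPV1 were dye-loaded with Fluo-8 and read kinetically: 10 s baseline, 3 min after compound (agonist portion), then 2 min after EC20 capsaicin (allosteric enhancer portion). Calcium-bound dye fluorescence at 480/520 nm.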
Six1-Eya2 inh: blocks human Six1 binding to Eya2 | Q15475+O00167 | AlphaScreen GST-Six1/His-Eya2 binding, biochemical; stronger effect = lower value; control for the full effect not named in the record | activity change, % (test concentration not listed) | actives 0.56% (n = 360,000); in the data active = activity change below about -65%; inconclusive = about -30% to -65%; inactive = above about -30%; note: % is set by controls: 0 for no effect and ±100 for the full control effect; compound concentration not given in the record
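Compounds are tested against tagged Six1 and Eya2 proteins bridged by glutathione donor and nickel acceptor beads; after a one-hour incubation at 37 °C without light, AlphaScreen emission is recorded.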
TRPML1 inh: blocks the human TRPML1 channel | Q9GZU1 | AID 624415 | activity change, negative = inhibition, % (concentration not given with the values) | TRPML1-inducible cells, Ca2+ dye fluorescence, FDSS; stronger effect = lower value; inhibition of EC80 agonist-evoked calcium signal | actives 0.02% (n = 390,000); in the data active means activity change below about -50%; inconclusive means about -30% to -50%; inactive means above about -30%;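 note: stimulus is agonist 54-4 at its EC80 concentration; % is set by controls: 0 for no effect and ±100 for the full control effect; compound concentration not given in the record; the text of the record puts the active cut at -80%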
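Calcium fluorescence in TRPML1-DL cells induced overnight with Tet: a 110 s read after compound pin addition, then a 110 s antagonist read after challenge with 54-4 at 4 uM final (EC80).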
TRPML1 ag: agonists of human TRPML1 channel. Q9GZU1. TRPML1-expressing cells, Ca2+ dye fluorescence, FDSS; host cell line not named in the record; reference of the full effect not given here. activation, % (concentration not given with the values). actives 0.12% (n = 410,000). AID 624414; in the data active = activation above about 50%; inconclusive = about 30% to 50%; inactive = below about 30%; note: 0% is about no effect; the text of the record puts the active cut at 80%
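Tet-induced TRPML1-DL cells, 1,500 per well, cultured overnight, were loaded with a no-wash Ca2+ dye for 45–90 min. Calcium fluorescence was recorded on the FDSS for 110 s after compound addition, before the EC80 agonist (4 uM 54-4) was added.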
CtBP-E1A inh: inhibitors of CtBP/E1A interaction | AlphaScreen GST-E1A/His-CtBP binding, 1536-well; stronger effect = lower value; control for the full effect not named in the record | activity change, % (no concentration beside the values) | actives 0.49% (n = 340,000) | AID 651724; in the data active means activity change below about -65%; inconclusive means about -30% to -65%; inactive means above about -30%; note: % is set by controls: 0 for no effect and ±100 for the full control effect; compound concentration not given in the record
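Protein mix (5X: 125 nM each GST-E1A, His-CtBP) was incubated with pinned compound 2 h at 37 deg C in dark, in 50 mM Tris pH 8.0 buffer with 300 mM NaCl. Glutathione donor and nickel acceptor beads followed; AlphaScreen signal read after 1 h.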
Numbers without * were called inactive; ? = inconclusive; · = no result given.

#1 CCc1cc(=O)oc2c(C)c(OC(C)C(=O)NCCCn3ccnc3)ccc12 (configuration not stated)
#2 Cc1cc(C)c2[nH]c(=O)c(C(c3nnnn3CC3CCCO3)N3CCCC(C)C3)cc2c1 (configuration not stated)
#3 O=C(CN1CCCCC1)NNc1nc(-c2ccccc2)c2cc(Cl)ccc2n1
#4 COc1ccc(S(=O)(=O)N2CCOCC2)cc1NC(=O)Cc1c(F)cccc1Cl
#5 O=C(Nc1ccc(F)cc1)C1CCCN(S(=O)(=O)c2cccc3cccnc23)C1 (configuration not stated)
#6 Cc1ccc[n+](-c2[nH]c(=O)sc2/C=N/N=C(\[O-])c2cccnc2)c1

| assay / entry | 1 | 2 | 3 | 4 | 5 | 6 |
| --- | --- | --- | --- | --- | --- | --- |
| TRPV1 PAM | -1 | -25 | 5 | -8 | · | -1 |
| TRPML1 ag | -0.9 | 0.9 | -1.1 | -0.5 | 0.2 | -0.4 |
| TRPML1 inh | 5 | 6 | -1 | 8 | 20 | -5 |
| CtBP-E1A inh | 0 | 1 | 0 | 3 | -1 | 1 |
| Six1-Eya2 inh | 1 | 1 | -2 | -3 | -7 | 0 |
| D2 PAM | -2 | -8 | -4 | -4 | 2 | 0 |

#7 CC(C)(C)C(=O)Nc1ccc(S(=O)(=O)N2CCC(c3nc4ccccc4[nH]3)CC2)cc1
#8 CCn1c(SCC(=O)c2ccc(F)cc2)nnc1-c1ccoc1C
#9 COc1ccc(-n2nc3c(c2NC(=O)CCCl)CSC3)cc1
#10 O=c1c2cc(Cl)ccc2oc2nc3n(c(=O)c12)CCCS3
#11 CCN1CCN(S(=O)(=O)c2ccc(C(=O)Nc3ccccc3)cc2)CC1
#12 O=C(COC(=O)c1cc[n+]([O-])cc1)Nc1ccc([N+](=O)[O-])cc1Cl

| assay / entry | 7 | 8 | 9 | 10 | 11 | 12 |
| --- | --- | --- | --- | --- | --- | --- |
| TRPV1 PAM | 24 | 19 | 1 | -5 | -12 | 2 |
| TRPML1 ag | 0.4 | -1.2 | 0.9 | 0.2 | 0.2 | -0.1 |
| TRPML1 inh | 1 | 16 | 11 | 32 | -1 | 7 |
| CtBP-E1A inh | -2 | 4 | 6 | -30 | -1 | 8 |
| Six1-Eya2 inh | -27 | -4 | -2 | -27 | 3 | 0 |
| D2 PAM | -4 | 16 | -3 | -14 | -7 | -3 |

Quoted at random: four compounds from above
#10 O=c1c2cc(Cl)ccc2oc2nc3n(c(=O)c12)CCCS3
#9 COc1ccc(-n2nc3c(c2NC(=O)CCCl)CSC3)cc1
#11 CCN1CCN(S(=O)(=O)c2ccc(C(=O)Nc3ccccc3)cc2)CC1
#7 CC(C)(C)C(=O)Nc1ccc(S(=O)(=O)N2CCC(c3nc4ccccc4[nH]3)CC2)cc1

| assay / entry | 10 | 9 | 11 | 7 |
| --- | --- | --- | --- | --- |
| TRPV1 PAM | -5 | 1 | -12 | 24 |
| TRPML1 ag | 0.2 | 0.9 | 0.2 | 0.4 |
| TRPML1 inh | 32 | 11 | -1 | 1 |
| CtBP-E1A inh | -30 | 6 | -1 | -2 |
| Six1-Eya2 inh | -27 | -2 | 3 | -27 |
| D2 PAM | -14 | -3 | -7 | -4 |

Carrying on.
#13 COc1ccccc1NC(=O)/C(=N/OCc1ccc(C#N)cc1)C(C)=O
#14 CS(=O)(=O)c1ccc(Cl)c(NC(=O)CN2C(=O)C3CCCCC3C2=O)c1 (configuration not stated)
#15 Cc1ccc(/C=C/C(=O)c2nc3ccccc3[nH]2)cc1
#16 O=C(COc1cc(F)ccc1[N+](=O)[O-])Nc1ccc2c(c1)OCO2
#17 O=C(NCc1ccc(F)cc1)c1cnc(Cl)c(Cl)c1
#18 Fc1ccc(/C=C\c2nccc3c2[nH]c2ccccc23)cc1

| assay / entry | 13 | 14 | 15 | 16 | 17 | 18 |
| --- | --- | --- | --- | --- | --- | --- |
| TRPV1 PAM | 4 | -7 | ? | -12 | -17 | -10 |
| TRPML1 ag | -1.0 | -0.8 | 2.5 | 0.3 | -0.8 | 0.7 |
| TRPML1 inh | 1 | -4 | -5 | 5 | 4 | 31 |
| CtBP-E1A inh | -5 | 3 | -1 | · | 5 | 29 |
| Six1-Eya2 inh | 0 | 6 | 2 | 2 | -2 | 44 |
| D2 PAM | -10 | -15 | -7 | -2 | -11 | -26 |

#19 COc1cc2c(cc1OC)C(c1ccccc1F)OC(=O)C2 (configuration not stated)
#20 COc1ccc(N2C(=O)CSC2c2ccc(F)c(F)c2)cc1 (configuration not stated)
#21 CCN(CCCNc1cc2c(c(N)c1S(=O)(=O)O)C(=O)c1ccccc1C2=O)c1ccccc1
#22 CN(C(=O)c1cccc(NC(=O)Cc2ccc(NC(=O)C3CCCN(C(=O)C4CCCC4)C3)cc2)c1)C1CCCC1 (configuration not stated)
#23 O=C(CCNC(=O)c1ccc(Cl)cc1)Nc1c(F)c(F)cc(F)c1F
#24 COc1ccc(-n2c(Cc3cccn3C)nnc2SCC(=O)NC2CCCCC2)cc1

| assay / entry | 19 | 20 | 21 | 22 | 23 | 24 |
| --- | --- | --- | --- | --- | --- | --- |
| TRPV1 PAM | 0 | 16 | · | · | 1 | 0 |
| TRPML1 ag | 0.6 | -1.4 | -0.6 | -0.5 | 2.4 | 0.5 |
| TRPML1 inh | 4 | -12 | 6 | -9 | 27 | 0 |
| CtBP-E1A inh | · | 3 | -16 | -1 | 0 | -25 |
| Six1-Eya2 inh | 1 | 6 | -65* | -4 | 10 | -18 |
| D2 PAM | -1 | -1 | -22 | · | -19 | -4 |

#25 CC(C)(C)NCC(O)COc1c(F)cc(Br)cc1F (configuration not stated)
#26 CCN(Cc1ccccc1)S(=O)(=O)c1ccc(C(=O)N(CCCN(C)C)c2nc3cc(C)cc(C)c3s2)cc1
#27 Cc1nc2cc(CC(=O)O)ccc2o1
#28 CC(C)C(C)NC(=O)CN1C(=O)NC2(CCc3ccccc3C2)C1=O (configuration not stated)
#29 Cc1cccc(-c2nc(CN3CCN(C(=O)C4CCCO4)CC3)cs2)c1 (configuration not stated)

| assay / entry | 25 | 26 | 27 | 28 | 29 |
| --- | --- | --- | --- | --- | --- |
| TRPV1 PAM | 7 | -1 | 4 | 8 | 7 |
| TRPML1 ag | 1.0 | -0.4 | 0.3 | 0.7 | 0.3 |
| TRPML1 inh | -2 | -2 | 19 | 14 | -5 |
| CtBP-E1A inh | 2 | ? | 0 | 0 | -4 |
| Six1-Eya2 inh | 4 | -29 | 12 | -4 | 0 |
| D2 PAM | -16 | 0 | 7 | -6 | -18 |

Entries of single compounds, looked up by structure. Values in the order: TRPV1 PAM	TRPML1 ag	TRPML1 inh	CtBP-E1A inh	Six1-Eya2 inh	D2 PAM
`CCN(Cc1ccccc1)S(=O)(=O)c1ccc(C(=O)N(CCCN(C)C)c2nc3cc(C)cc(C)c3s2)cc1` is listed as -1	-0.4	-2	?	-29	0
`CC(C)C(C)NC(=O)CN1C(=O)NC2(CCc3ccccc3C2)C1=O` (configuration not stated) is listed as 8	0.7	14	0	-4	-6
`Cc1cccc(-c2nc(CN3CCN(C(=O)C4CCCO4)CC3)cs2)c1` (configuration not stated) is listed as 7	0.3	-5	-4	0	-18
`CC(C)(C)NCC(O)COc1c(F)cc(Br)cc1F` (configuration not stated) is listed as 7	1.0	-2	2	4	-16
